RanGTP-Imp inh: inhibitors of RanGTP-importin-beta interaction, primary screen, biochemical, FRET, CFP-Ran, YFP-importin-beta, homogeneous. AID 2216, 2009. inhibition, % (concentration not given with the values). actives 1.1% (n = 300,000). cell-free CFP-Ran/YFP-importin-beta FRET ratio;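 active = most replicates above 15%; inconclusive = exactly half above 15%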;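 note: 0% = DMSO wells and 100% = Ran loaded with GDP instead of GTP; wells of about 40 µL received 100 nL stock; the first replicate is given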
HNF4A DNA FP: change in binding of human HNF4A to DNA, primary screen, biochemical, fluorescence polarization, FITC-DNA; Hepatocyte nuclear factor 4-alpha (Homo sapiens), P41235; 1 h; activity change, % at 10 µM; actives 0.3% (n = 360,000); AID 1224865, 2016; in the data active = activity change above about 30%, passing the limit was not always enough;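 note: controls were the assay level and a saturating level of protein; the project sought stronger binding though the title names inhibitors; some compounds called inactive have numbers as strong as hits; positive values seem to mean higher polarization but the record does not say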
Target sequence (P41235 whole entry, looked up): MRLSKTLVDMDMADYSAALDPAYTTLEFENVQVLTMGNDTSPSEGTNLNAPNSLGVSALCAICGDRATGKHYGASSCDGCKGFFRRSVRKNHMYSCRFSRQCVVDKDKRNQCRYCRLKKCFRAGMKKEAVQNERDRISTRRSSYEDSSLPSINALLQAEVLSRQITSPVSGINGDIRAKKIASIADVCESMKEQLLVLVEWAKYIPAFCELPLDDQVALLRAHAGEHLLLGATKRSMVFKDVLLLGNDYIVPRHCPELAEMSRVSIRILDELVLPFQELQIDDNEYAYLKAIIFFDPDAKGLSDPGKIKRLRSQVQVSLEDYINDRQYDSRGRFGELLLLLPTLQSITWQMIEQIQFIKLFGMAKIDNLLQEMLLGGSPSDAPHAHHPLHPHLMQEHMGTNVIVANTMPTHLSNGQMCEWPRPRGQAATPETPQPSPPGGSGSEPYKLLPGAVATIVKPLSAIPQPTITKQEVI
Vif TR-FRET: inhibitors of Vif binding to APOBEC3G peptide, primary screen, biochemical, TR-FRET, GST-Vif 1-94, biotin-A3G peptide, dose response retest (AID 1117319) | inhibition, %, or IC50 in µM where a hit was titrated | Virion infectivity factor (Human immunodeficiency virus type 1 group M subtype B (isolate … | TR-FRET GST-Vif / biotin-A3G peptide binding; higher % means a stronger effect; test concentration not given here; strong numbers were not always called active | actives 0.57% (n = 260,000);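 active = above the screen mean plus three standard deviations and confirmed in dose response; inconclusive = results disagree or hit not tested in dose response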;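 note: Vif residues 1-94 fused to GST binding biotinylated APOBEC3G peptide 110-148; 0% = full assay without inhibitor and 100% = GST in place of GST-Vif; retest series ran down from 100 µM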
LANA-H2A inh: blockers of LANA interaction with H2A/H2B – biochemical, FP readout, HTS, primary screen; cell-free LANA-H2A/H2B peptide, fluorescence polarization; inhibition, % (no concentration beside the values); actives 0.6% (n = 320,000); AID 2629, 2010; in the data active = inhibition mostly above about 10%, no sharp cut-off; inactive = mostly below about 6.7%;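 note: stock transfer was 7.5 nL into about 10 µL; 0% = median of vehicle wells and 100% = median of positive control wells; one replicate is shown; the record names a cut of 25% in any replicate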
B2AR ag: beta2AR agonists driving receptor internalization, primary screen, cell-based, FAP fluorogen, flow cytometry; response, % (no concentration beside the values); Beta-2 adrenergic receptor (Homo sapiens), P07550; Am2.2-beta2AR cells; reference of the scale not given here; actives 0.43% (n = 340,000); AID 504454, 2011;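 active = response above a set limit, near 3 SD of response in nonfluorescent compounds, cut at about 42% in these data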;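 note: stock transfer was 100 nL into about 11 µL; a reference agonist was the positive control; negative values mostly stem from fluorescent compounds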
Target sequence (P07550 whole entry, looked up): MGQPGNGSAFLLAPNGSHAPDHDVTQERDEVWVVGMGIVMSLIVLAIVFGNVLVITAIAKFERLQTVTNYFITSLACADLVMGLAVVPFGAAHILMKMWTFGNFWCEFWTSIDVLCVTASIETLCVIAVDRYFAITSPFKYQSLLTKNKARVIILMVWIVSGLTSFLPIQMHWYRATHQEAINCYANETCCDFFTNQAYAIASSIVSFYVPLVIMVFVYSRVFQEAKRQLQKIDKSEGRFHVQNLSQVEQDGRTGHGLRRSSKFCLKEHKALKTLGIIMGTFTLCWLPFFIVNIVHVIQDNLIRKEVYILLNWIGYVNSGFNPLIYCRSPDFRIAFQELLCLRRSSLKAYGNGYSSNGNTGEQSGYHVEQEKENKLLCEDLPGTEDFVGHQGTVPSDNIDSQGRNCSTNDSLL
ALR inh: inhibitors of human ALR sulfhydryl oxidase, primary screen, biochemical, H2O2 detection, HRP-luminol luminescence, single point; FAD-linked sulfhydryl oxidase ALR (Homo sapiens), P55789; purified ALR, DTT oxidation; inhibition, % (no concentration beside the values); actives 3.8% (n = 290,000); AID 485317, 2010;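 active = mean and each replicate at 75% or more; inconclusive = only one of the two met; inactive = neither met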;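 note: stock transfer was 7.5 nL into about 7.5 µL; 0% = neutral wells and 100% = wells with inactivated enzyme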
Calb FLC: C. albicans growth inhibition with fluconazole, primary screen, CaCi-2 strain, Alamar Blue fluorescence; growth inhibition, % (concentration not given with the values); AID 1979, 2009; actives 0.57% (n = 300,000); C. albicans CaCi-2 (fluconazole-resistant clinical isolate) + fluconazole, 48 h;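 active = most replicates above 75%; inconclusive = exactly half above 75%; inactive = most below 75%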;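 note: all wells also contain fluconazole at 8 µg/ml as a sub-toxic cotreatment; 0% = median of DMSO wells and 100% = median of geldanamycin control wells; wells of about 8 µL received 7.5 nL stock; the first replicate is given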
* = called active by the depositor; ? = inconclusive; . = no result given. No enrichment for hits (roughly 6.3% active in at least one column).

SMILES	RanGTP-Imp inh	HNF4A DNA FP	Vif TR-FRET	LANA-H2A inh	B2AR ag	ALR inh	Calb FLC
Cc1ccccc1/C=C/c1cccc[n+]1C	-1.8	-0.1	.	-2.4	-9	11	2
O=C(Nc1ccc(NC(=O)C2CC2)nc1)c1ccccn1	-4.7	-2.2	-1%	0.8	2	-66	-5
COc1ccc(-c2sc3ccc(OC)cc3c2C#Cc2cncn2C)cc1	.	-3.5	.	2.1	21	-3	.
Cc1ccc(/C=N\NC(=O)C2COc3cc4ccccc4cc3O2)o1 (centres undefined)	1.6	1.3	1%	2.1	-3	.	21
CCN(CC)CCNC(C(=O)Nc1cc(C(F)(F)F)ccc1Cl)c1ccccc1 (centres undefined)	-1.8	0.1	.	5.7	-11	-9	-1
CC(C)(C)OC(=O)N1CCC(C(=O)Nc2ccc3c(c2)CCC3)CC1	.	1.8	.	-9.8	4	.	.
Cc1ccc(CN2CCN(/N=C/c3cccs3)CC2)cc1	?	0.4	4%	4.2	1	14	-16
Cc1cc(C)c(/C=N/NC(=O)c2nnn(-c3nonc3N)c2COc2ccc(F)cc2)c(C)c1	-1.5	2.0	6%	-0.5	13	-1	25
O=C(CCN1CCCC1)Nc1cccc(Br)c1	0.8	-0.1	11%	-1.5	3	-1	-9
O=C(CSc1nnc(NC(=O)c2c(F)cccc2F)s1)NCc1ccc(F)cc1	9.5	-0.9	0%	-1.2	-6	-2	-2
Cc1ccc(/C=C/C(=O)O)cc1S(=O)(=O)N1CCc2ccccc2C1	-0.2	-2.3	-7%	-0.3	3	2	-2
C#CCOCCOCCOCCNc1nc(N2CCN(C(=O)[C@H](CCCN=C(N)N)n3cc(C(N)[C@@H](C)CC)nn3)CC2)nc(N2CCN(C(=O)[C@H](CCC(=O)O)n3cc([C@@H](N)[C@H](C)CC)nn3)CC2)n1 (some centres undefined)	.	2.6	-2%	-3.2	-8	.	.

Grouped by structure, those above with nitrogen in an aromatic ring.
SMILES	RanGTP-Imp inh	HNF4A DNA FP	Vif TR-FRET	LANA-H2A inh	B2AR ag	ALR inh	Calb FLC
Cc1ccccc1/C=C/c1cccc[n+]1C	-1.8	-0.1	.	-2.4	-9	11	2
O=C(Nc1ccc(NC(=O)C2CC2)nc1)c1ccccn1	-4.7	-2.2	-1%	0.8	2	-66	-5
COc1ccc(-c2sc3ccc(OC)cc3c2C#Cc2cncn2C)cc1	.	-3.5	.	2.1	21	-3	.
Cc1cc(C)c(/C=N/NC(=O)c2nnn(-c3nonc3N)c2COc2ccc(F)cc2)c(C)c1	-1.5	2.0	6%	-0.5	13	-1	25
O=C(CSc1nnc(NC(=O)c2c(F)cccc2F)s1)NCc1ccc(F)cc1	9.5	-0.9	0%	-1.2	-6	-2	-2
C#CCOCCOCCOCCNc1nc(N2CCN(C(=O)[C@H](CCCN=C(N)N)n3cc(C(N)[C@@H](C)CC)nn3)CC2)nc(N2CCN(C(=O)[C@H](CCC(=O)O)n3cc([C@@H](N)[C@H](C)CC)nn3)CC2)n1 (some centres undefined)	.	2.6	-2%	-3.2	-8	.	.

Other records
SMILES	RanGTP-Imp inh	HNF4A DNA FP	Vif TR-FRET	LANA-H2A inh	B2AR ag	ALR inh	Calb FLC
Cc1ccc(O)c(NC(=S)NC(=O)c2ccc(-c3ccc(Cl)cc3)o2)c1	-2.7	-1.3	3%	-1.9	-2	-8	29
COc1ccc(-c2nnc(SCc3cc(C)ccc3C)n2N)cc1	-1.0	0.0	13%	0.0	-6	-4	10
O=C(CC1SC(N2CCCCC2)=NC1=O)Nc1cccc(C(=O)NCc2ccc(F)cc2)c1 (centres undefined)	.	-0.4	4%	.	2	.	.
CC(C)(C)OC(=O)N1CCCC(C(=O)Nc2cccc(C(=O)N3CCCCC3)c2)C1 (centres undefined)	.	-3.9	1%	.	-5	.	.
OCC[C@@H]1C[C@H](O)[C@@H](O)[C@]2(Cc3ccccc3O2)O1	?	-1.4	.	1.1	1	5	-2
Cc1ccc(NC(=O)CN2CCCC2)cc1Br	2.4	0.2	1%	0.1	-4	-11	-6
Cc1ccc(OCC(=O)N2CCN(S(=O)(=O)c3ccc(Cl)s3)CC2)cc1C	.	-0.1	9%	-1.6	0	-2	.
CSc1ccccc1OCc1cc(C(=O)N(Cc2nccn2C)C(C)C)no1	-3.2	-0.4	?	-1.1	-10	6	-52
CCn1c(SCc2ccc(C(=O)Nc3cc(C)cc(C)c3)cc2)nnc1-c1ccncc1	?	-1.4	7%	0.4	8	15	-4
CCCCNc1c(-c2ccc(OC)c(SC3CCCCC3)c2)nc2ccc(Cl)cn12	.	-1.4	.	2.7	0	1	.
CC1=CCC(C(=O)N/N=C/c2cccs2)C(c2ccc(F)cc2)C1 (centres undefined)	-0.2	-1.2	11%	0.5	-7	-2	-2
CN(CC(=O)O)c1ccc(S(=O)(=O)N2CCOCC2)cc1[N+](=O)[O-]	-1.7	-2.8	-1%	-5.0	-2	9	5
Clc1ccc(OCCCCN2CCCCC2)cc1	1.4	1.4	-2%	0.6	-8	-15	-26
Fc1ccc(-n2[nH]nnc2=S)cc1N1CCCC1	1.2	-2.1	-7%	-3.9	-2	82*	-12
CC1CCN(C(=O)CC#N)CC1	0.3	0.8	0%	1.0	3	22	-10
Fc1ccc(-c2cc3nc(-c4ccccc4)cc(N4CCOCC4)n3n2)cc1	1.3	1.7	-58%	3.8	-2	-2	-7
O=C(Nc1cc(=O)[nH]c2ncnn12)c1ccccc1	2.0	1.1	14%	3.1	8	-3	-8
Cc1cccc(/C=N/n2c(-c3ccccn3)n[nH]c2=S)c1	4.5	.	26%	-3.3	.	95*	3
O=C(c1ccco1)N1CCN(C2CC(=O)N(c3ccc(C(F)(F)F)cc3)C2=O)CC1 (centres undefined)	.	-4.1	.	-1.0	4	-2	.
CCc1ccc(NC(=O)NNC(=O)c2ccc3ccccc3c2O)cc1	0.0	1.2	.	-7.8	22	-3	68
c1ccc(-c2csc(NC3CCCCC3)n2)cc1	-3.9	-2.4	.	-3.7	-2	1	-6
COc1ccc(-n2c(-c3ccc(Br)cc3)c[n+]3c2CCCCC3)cc1	-0.3	-2.8	13%	0.7	5	-17	14
CCCCN(C(=O)CSc1nnnn1C)C1CCS(=O)(=O)C1 (centres undefined)	.	6.1	-3%	1.6	3	-2	.
COc1ccccc1NS(=O)(=O)c1ccc(NC(=O)c2ccncc2)cc1	-2.1	1.0	.	5.3	10	-26	-22

Single records, from the list above:
O=C(Nc1ccc(NC(=O)C2CC2)nc1)c1ccccn1 is entered as RanGTP-Imp inh = -4.7; HNF4A DNA FP = -2.2; Vif TR-FRET = -1%; LANA-H2A inh = 0.8; B2AR ag = 2; ALR inh = -66; Calb FLC = -5
Fc1ccc(-c2cc3nc(-c4ccccc4)cc(N4CCOCC4)n3n2)cc1 is entered as RanGTP-Imp inh = 1.3; HNF4A DNA FP = 1.7; Vif TR-FRET = -58%; LANA-H2A inh = 3.8; B2AR ag = -2; ALR inh = -2; Calb FLC = -7
Clc1ccc(OCCCCN2CCCCC2)cc1 is entered as RanGTP-Imp inh = 1.4; HNF4A DNA FP = 1.4; Vif TR-FRET = -2%; LANA-H2A inh = 0.6; B2AR ag = -8; ALR inh = -15; Calb FLC = -26

(more compounds)
SMILES	RanGTP-Imp inh	HNF4A DNA FP	Vif TR-FRET	LANA-H2A inh	B2AR ag	ALR inh	Calb FLC
CC(C)[C@H](N)c1nnc(SCc2ccc(Cl)cc2)o1	1.2	-1.0	-4%	-0.3	13	-1	-25
O=S(=O)(c1cccs1)N1CCN(c2ncccn2)CC1	0.9	3.6	22%	-2.7	1	-2	0
Cc1ccccc1-n1nc(-c2ccc(N)cc2)cc1N	3.0	-4.0	32%	2.7	-11	?	-2
CCc1noc(C)c1C(=O)OCC(=O)N(CCOC)c1c(N)n(Cc2ccccc2)c(=O)[nH]c1=O	13	-1.2	-1%	-0.6	-7	-16	4
O=C(CCn1c(=O)[nH]c2ccsc2c1=O)N1CCN(Cc2ccc3c(c2)OCO3)CC1	-0.9	0.8	0%	-0.1	-4	0	-11
COc1cccc(NC(=O)COC(=O)C2CCN(S(=O)(=O)c3cccs3)CC2)c1	0.4	-0.4	1%	2.6	-1	-8	8
C/C(=N\OCC(=O)N/N=C/c1ccccc1O)c1cccs1	1.0	0.4	2%	1.5	2	-1	-37
Nc1c(C(=O)NC2CCCC2)c2nc3ccccc3nc2n1/N=C/c1cccnc1	8.2	2.5	.	-2.8	7	.	3
COc1ccc(/C=N/NC(=O)c2[nH]c3ccc(Br)cc3c2-c2ccccc2)cc1	-2.9	4.0	.	2.2	27	0	-3
COC(=O)c1cccc(N(CC(=O)NC2CCCC2)C(=O)CCC(=O)Nc2cc(C)on2)c1	?	-0.5	.	0.3	1	.	-2
CS(=O)(=O)c1ccccc1C(=O)Nc1cc(Cl)ccc1-n1cncn1	1.2	-2.7	-2%	-0.9	-1	0	4
COc1cc2[nH]c(=O)n(CCCC(=O)N3CC=C(c4ccccc4)CC3)c(=O)c2cc1OC	-0.9	4.5	-4%	-0.6	1	-12	10
COc1ccccc1-n1cnnc1SCC(=O)NCc1cccs1	6.8	-0.5	1%	3.6	-3	34	-4
CCOc1ccc(C(c2c(NC(=O)c3ccccc3)sc(C)c2C)N2CCN(CCO)CC2)cc1 (centres undefined)	-4.1	0.8	.	-5.6	3	.	-4
Cc1cc(C)c(NC(=O)CSc2nccn2C)c(C)c1	-1.8	-1.5	.	-5.8	8	-1	1
CN(CC(=O)Nc1ccc(Cl)cc1)S(=O)(=O)c1ccc2c(c1)n(C)c(=O)c(=O)n2C	-2.4	-0.1	-1%	9.3	2	0	12
CC12CC(NC(=O)N1c1cccc(C(=O)N3CCN(c4ccccc4F)CC3)c1)c1ccccc1O2 (centres undefined)	-1.6	2.0	6%	-0.2	0	-7	-6
COc1ccc(CNC(=O)CN2C(=O)C3CCCN3c3ncc(Cl)cc32)cc1 (centres undefined)	4.1	30	4%	-4.6	-1	-23	6
O=C(NCc1cccs1)C1CC(c2ccc(F)cc2)=NO1 (centres undefined)	-0.1	-1.8	6%	-3.2	-10	-7	-2
CCO[C@H]1OC(C(=O)O)=C[C@@H](c2cn(C(C)=O)c3ccccc23)[C@@H]1CCCO	-2.4	-4.9	.	-2.8	0	3	-4
CCN(CC(=O)Nc1c(F)cccc1F)C(=O)c1ccc(C#N)cc1	-20	-0.7	3%	3.6	-1	2	.
COc1ccccc1OCCCOc1ccc([N+](=O)[O-])cc1Cl	0.3	-1.8	-1%	-0.3	-7	.	10
COc1cc2cc(C(=O)N3CCC(Cc4ccccc4)CC3)[nH]c2cc1OC	-3.6	0.3	-9%	-3.2	10	-11	20
O=c1c(CN2CCN(c3ccccn3)CC2)coc2ccccc12	-4.2	-3.4	.	-2.8	4	0	9
COc1ccc(OC)c(N(CC(=O)NCCSCc2ccc(C)cc2)S(C)(=O)=O)c1	6.6	0.7	.	-0.4	-5	-11	2
OCCNCc1cc(Br)ccc1OCc1ccc(Cl)cc1	0.7	-2.9	-3%	-0.5	14	-10	-20

High-throughput results deposited in PubChem by several laboratories.
